# Assay outcomes from PubChem.
# KCNQ2 inh – KCNQ2 potassium channel inhibitors, primary screen, cell-based, CHO-K1, FluxOR thallium flux, B-score (AID 2156); O88943; 20 min; hits give low values; only compounds with negative scores are shown here; some inactives read as strong as hits; B-score at 10 µM; 310,000 tested, 1.1% active;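 active means fluorescence ratio B-score at most minus 3 library SDs, with starting brightness B-score within 2 library SDs, cut at about -5.5 in these data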
# Target sequence (O88943 whole entry, looked up): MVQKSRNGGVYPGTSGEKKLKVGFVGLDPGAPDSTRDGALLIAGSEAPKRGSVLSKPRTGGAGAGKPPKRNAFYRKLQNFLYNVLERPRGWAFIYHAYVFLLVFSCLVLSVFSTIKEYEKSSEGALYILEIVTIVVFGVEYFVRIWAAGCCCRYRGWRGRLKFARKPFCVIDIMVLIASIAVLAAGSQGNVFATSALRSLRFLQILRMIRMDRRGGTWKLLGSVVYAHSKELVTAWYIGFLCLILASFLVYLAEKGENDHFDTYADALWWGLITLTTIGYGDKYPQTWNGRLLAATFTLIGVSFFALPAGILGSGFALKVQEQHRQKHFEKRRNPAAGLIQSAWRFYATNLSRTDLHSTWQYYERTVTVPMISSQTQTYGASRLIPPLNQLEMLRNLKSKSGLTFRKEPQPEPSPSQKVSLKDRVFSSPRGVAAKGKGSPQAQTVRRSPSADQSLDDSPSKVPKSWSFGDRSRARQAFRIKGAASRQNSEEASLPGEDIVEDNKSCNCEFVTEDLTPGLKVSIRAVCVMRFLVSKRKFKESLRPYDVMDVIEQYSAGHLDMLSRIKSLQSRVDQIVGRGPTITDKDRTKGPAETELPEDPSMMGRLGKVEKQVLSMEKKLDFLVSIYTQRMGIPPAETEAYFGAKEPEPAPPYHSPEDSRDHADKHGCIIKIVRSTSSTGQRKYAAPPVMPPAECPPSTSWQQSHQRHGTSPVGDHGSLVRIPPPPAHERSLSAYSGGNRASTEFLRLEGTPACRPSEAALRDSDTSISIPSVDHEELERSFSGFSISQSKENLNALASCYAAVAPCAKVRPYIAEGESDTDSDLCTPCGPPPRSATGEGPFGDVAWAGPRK
# KCNQ2 inh baseline – second read-out of KCNQ2 inh, no call of its own (marks repeat the call); B-score; measured here: initial fluorescence intensity artifact check;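 brightness before thallium and not channel activity; 0 = typical well and far values either way flag optical interference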
# The depositor's hits bear a star; i = inactive.
KCNQ2 inh	KCNQ2 inh baseline	Compound
i	-0.6	O=C1CC(C(=O)N2CCC(N3CCC(C(=O)NC4CC4)CC3)CC2)c2ccccc21 (stereo unspecified)
i	-0.24	CC(C)CCN1CCN(Cc2cccs2)CC1CCO (stereo unspecified)
i	-0.32	COc1ccc(S(=O)(=O)N2CCc3ccccc32)cc1C(=O)OCc1c(C)noc1C
i	-2.2	COc1ccc(/C=N/NC(=O)c2ccc(C)cc2)cc1CN1CCN(c2ccc(F)cc2)CC1
i	-0.61	Cc1noc(C)c1-c1nc(CS(=O)(=O)c2ccc(F)cc2)no1
i	-0.27	Cc1ccc(S(=O)(=O)c2nc(Nc3ccccc3)sc2Cl)cc1
i	-1.3	O=C(CN(C(=O)c1csnn1)c1cccc(F)c1)NC1CCCC1
i	0.71	CC(C)Cn1cc(C(=O)NCc2cccs2)c2c3ccccc3n(C)c2c1=O
i	-1.5	Cc1cc2c(=O)oc(-c3ccc(F)cc3)nc2s1
i	-2	CSc1nc(S(=O)(=O)c2ccc(C)cc2)c(Cl)s1
i	1.5	Cc1noc(C)c1CSCC(=O)OCC(=O)N1CC(=O)Nc2ccccc21
i	-0.49	COC(=O)CNC(c1ccccc1)c1cc(C)ccc1NS(=O)(=O)c1ccc(C)cc1 (stereo unspecified)
i	-1.7	CC1=C/C(=N\Nc2ccccc2[N+](=O)[O-])CC(C)(C)C1
i	-1	O=C(CN1C(=O)c2ccccc2C1=O)Nc1ccc(-c2nc3ccccc3o2)cc1
i	-1.1	COc1ccc(N2CCN(C(=O)CSc3nnc4c(C)cc5c(C)cc(C)cc5n34)CC2)cc1
i	0.49	Cc1nnc(NC(=O)CSc2nc(CC(C)C)nc3c2c(=O)n(C)c(=O)n3C)s1
i	-0.16	CCCSc1nc(NCc2ccco2)c2c3c(sc2n1)COC(C)(CC)C3 (stereo unspecified)
i	1.2	COCCN1Cc2cccc(C(=O)NCCc3ccccc3)c2C1=O
i	-0.66	COc1ccc(C(C(=O)Nc2ccc3c(c2)OCO3)N(C)C(=O)Cc2c[nH]c3ccccc23)cc1 (stereo unspecified)
i	0.26	COc1ccc(-c2cnnn2-c2ccc(NC(=O)c3ccc(S(=O)(=O)N4CCCCC4)cc3)cc2)cc1
i	0.14	CN(C)C=NC(=O)c1cc(C(=O)c2ccc(F)cc2)c[nH]1
i	-0.63	COCc1cc(C)nc(OCC(=O)N/N=C/c2ccc(OC)c(OC)c2)c1C#N
i	0.01	COC(=O)c1ccc(COc2ccccc2/C=C(\C#N)C(=O)Nc2c(C)cccc2C)cc1
i	-0.01	CCCS(=O)(=O)c1nc(S(=O)(=O)c2ccc(C)cc2)c(NCc2ccc3c(c2)OCO3)s1
i	-0.51	O=C(CSC1=Nc2ccccc2C2=NC(CC(=O)NC3CCCCC3)C(=O)N12)NCc1ccco1 (stereo unspecified)
i	-0.13	CCOc1cnc(-c2c(-c3c(Cl)cccc3Cl)noc2C)o1
i	-3.3	CSc1nc2n(n1)C(c1cc(Br)ccc1F)C(C(=O)N(C)C)=C(C)N2 (stereo unspecified)
i	-0.99	O=C(c1cc(C(=O)N2CCOCC2)c2nc3ccccc3n2c1)c1ccccc1O
i	1.2	CCCCOC(=O)Cn1c(=O)n(CC(=O)OCCCC)c2cc(C)ccc21
i	-1.6	CS(=O)(=O)N(CC(=O)NCCSCc1cccc(Cl)c1)c1ccc(F)cc1
i	-3.1	COc1ccc(N2C(=O)CCC(C(=O)Nc3ccccn3)C2c2ccc(OC)c(OC)c2)cc1 (stereo unspecified)
i	-1.7	Cc1cc(NC(=O)C(C)SCC(=O)OC(C)C(=O)Nc2cccc(C#N)c2)no1 (stereo unspecified)
i	-0.85	Cc1cc(NC(=O)C2CCCCC2)ccc1NC(=O)c1ccccc1Cl
i	-0.22	CCCC1(CCC)NC(=O)NC1=O
i	-0.83	O=C(c1cc(COc2ccc(F)cc2F)on1)N1CCOCC1
i	2.8	CSc1nc(NCCCN(C)C)c2c3c(sc2n1)CN(C)CC3

# Sorted by the number under KCNQ2 inh baseline (descending): 6 of the compounds above.
KCNQ2 inh	KCNQ2 inh baseline	Compound
i	-0.13	CCOc1cnc(-c2c(-c3c(Cl)cccc3Cl)noc2C)o1
i	-0.83	O=C(c1cc(COc2ccc(F)cc2F)on1)N1CCOCC1
i	-0.85	Cc1cc(NC(=O)C2CCCCC2)ccc1NC(=O)c1ccccc1Cl
i	-1.7	Cc1cc(NC(=O)C(C)SCC(=O)OC(C)C(=O)Nc2cccc(C#N)c2)no1 (stereo unspecified)
i	-3.1	COc1ccc(N2C(=O)CCC(C(=O)Nc3ccccn3)C2c2ccc(OC)c(OC)c2)cc1 (stereo unspecified)
i	-3.3	CSc1nc2n(n1)C(c1cc(Br)ccc1F)C(C(=O)N(C)C)=C(C)N2 (stereo unspecified)

# New compounds follow
KCNQ2 inh	KCNQ2 inh baseline	Compound
i	1.4	Cc1ccc(-c2nnn(CC(=O)N(CC3CCCO3)C(C(=O)NC3CCCC3)c3ccc(F)cc3)n2)o1 (stereo unspecified)
i	-1.5	O=c1c(N2CCOCC2)coc2ccccc12
i	2	CCc1cccc2c(=O)c(C(=O)N3CCOCC3)c[nH]c12
i	1.4	CCOCCCNS(=O)(=O)c1ccc(Br)cc1
i	-0.18	O=[N+]([O-])c1ccc2c(c1)nc1n2CCN(C2CCCCC2)C1
i	0.54	Cc1c(Cl)cccc1NC(=S)NCc1ccccc1Cl
i	0.47	CCCCOc1ccc(C(=O)Oc2ccc(C)nc2)cc1
i	-0.16	CCCc1ccc(Oc2cc(N3CCOCC3)nc(-c3ccccc3)n2)cc1
i	0.09	Cc1sc2ncn(C(C)C(=O)OC3CCCCC3)c(=O)c2c1C (stereo unspecified)
i	1.6	COC(=O)C1=C(NC(=O)COc2ccc(Cl)cc2Cl)CCS1
i	-0.08	O=C(OCc1nc2ccccc2[nH]1)C12CC3CC(CC(C3)C1)C2
i	0.81	Cc1ccccc1-n1c(Cc2cccs2)n[nH]c1=S

# A draw from above in order of length of the SMILES, low to high:
KCNQ2 inh	KCNQ2 inh baseline	Compound
i	0.71	CC(C)Cn1cc(C(=O)NCc2cccs2)c2c3ccccc3n(C)c2c1=O
i	-1	O=C(CN1C(=O)c2ccccc2C1=O)Nc1ccc(-c2nc3ccccc3o2)cc1
i	-1.7	Cc1cc(NC(=O)C(C)SCC(=O)OC(C)C(=O)Nc2cccc(C#N)c2)no1 (stereo unspecified)

# (cont.)
KCNQ2 inh	KCNQ2 inh baseline	Compound
-9.3*	-0.59*	Cc1ccc2nc(-c3ccccc3)cc(C(=O)N3CC(C)OC(C)C3)c2c1 (stereo unspecified)
i	-2	O=C(CSc1nc2ccccc2[nH]1)Nc1nc(-c2cccc(Br)c2)cs1
i	1.8	CC(=O)c1c(-c2ccccc2)c2cc([N+](=O)[O-])ccc2[nH]c1=O
i	-0.13	C/C(=N\N)c1c(-c2ccccc2)c2cc(C)ccc2[nH]c1=O
-7.9*	-2.3*	O=C(CCNc1ccccc1)c1cccc([N+](=O)[O-])c1
i	0.03	O=C(Nc1ccccc1C(F)(F)F)c1ccc(CN2CCC(Cc3ccccc3)CC2)cc1
i	-0.83	COc1cc(CN2CCNC(=O)C2CC(=O)N(C)Cc2ncc[nH]2)cc(OC)c1 (stereo unspecified)
i	0.69	Cc1cc(C)cc(OCCNS(=O)(=O)c2cccs2)c1
i	0.89	O=C(Nc1ccc(N2CCCC2)cc1)c1cc([N+](=O)[O-])ccc1N1CCOCC1
i	1.6	O=C(COc1ccc(F)cc1)N1CCC(Cc2ccccc2)CC1
i	-0.42	COc1ccc(N2CCc3c(C)nc(SC)nc32)cc1
i	-0.38	CCOC(=O)c1ccc(NS(=O)C23CC4CC(CC(C4)C2)C3)cc1 (stereo unspecified)

# Shown bar-delimited: part of the list above
Compound | KCNQ2 inh | KCNQ2 inh baseline
Cc1nnc(NC(=O)CSc2nc(CC(C)C)nc3c2c(=O)n(C)c(=O)n3C)s1 | i | 0.49
CCCSc1nc(NCc2ccco2)c2c3c(sc2n1)COC(C)(CC)C3 (stereo unspecified) | i | -0.16

# Next records
KCNQ2 inh	KCNQ2 inh baseline	Compound
i	-0.22	CCCCCCCC(=O)NC(Nc1ccccc1OC)C(Cl)(Cl)Cl (stereo unspecified)
i	0.88	Cc1c(C(=O)N2CCC(C)CC2)sc2ncnc(N3CCN(c4ccccc4)CC3)c12
i	0.23	N#C[C@@H]1[C@@H]2C(=O)N(c3ccc4c(c3)OCCO4)C(=O)[C@@H]2C2c3ccccc3C=CN21 (stereo partly specified)
i	3.2	CN(C(=O)OCc1ccccc1)C(CC(N)=O)C(=O)O (stereo unspecified)
i	0.04	C[C@@H](C(=O)NCCc1c[nH]c2ccccc12)[C@H]1C[C@]1(C)[C@H](NC(=O)OCc1ccccc1)c1ccccc1
i	1.2	O=C(CSc1ccccc1)Nc1ccc(NC(=O)c2ccco2)cc1
i	-1.2	COCCCNC(=S)NNC(=O)C(O)(c1ccccc1)c1ccccc1
i	0.03	CCCCN=c1scc(-c2ccc3c(c2)NC(=O)CO3)n1N=C1CCCC1
i	0.27	O=C(CSC1=NC(=O)C(Cc2ccccc2)C(=O)N1)NC1CCCCC1 (stereo unspecified)
i	-0.63	CCOC(=O)C1=C(C)N=c2s/c(=C\c3ccc(C(=O)O)cc3)c(=O)n2C1c1ccc(OC)cc1OC (stereo unspecified)
i	-1.2	O=C(CSc1nnc(CNC(=O)c2ccccc2)o1)c1ccccc1
i	0.66	Cc1ccc(S(=O)(=O)N2CCC(=O)N(CCOCc3ccc(C(F)(F)F)cc3)CC2)cc1
i	1.3	CCN1c2ccc(S(=O)(=O)N3CCOCC3)cc2N(Cc2ccc(OC)cc2)C1C (stereo unspecified)
i	-1.1	COc1cccc(CNC(=O)C2CCN(Cc3cnn(-c4ccccc4)c3-n3cccc3)CC2)c1
i	-0.04	CCOc1ccc(OCCn2c(S(=O)(=O)O)nc3c(N)ncnc32)cc1
i	0.22	COC(=O)C1=C(C)NC(=O)NC1c1ccc([N+](=O)[O-])o1 (stereo unspecified)
i	-1.1	CCOc1ccc(-n2c(C)nnc2SCC(=O)N(CC)CC)cc1
i	-0.38	Cc1ccc(NC(=O)COC(=O)/C=C/c2ccc(Br)o2)cc1S(=O)(=O)N(C)C
i	2.4	CC(=O)c1cc(NC(=O)c2cccc(C(F)(F)F)c2)c(=O)oc1/C=C/N(C)C
-6.1*	-1.4*	Cc1cc(OCC(=O)N2CCc3ccccc3C2)c(C)cc1Br
i	0.13	COc1ccc(C2CC(C(F)(F)F)n3nc(C(=O)N(C)Cc4cn(C)nc4C)c(Cl)c3N2)cc1 (stereo unspecified)
i	0.9	O=C(OCc1nnc(-c2ccccc2)o1)c1ccccc1
i	1.7	CC(NC(=O)C(c1ccccc1)c1ccccc1)c1ccc(S(N)(=O)=O)cc1 (stereo unspecified)
i	0.19	O=C(CN1C(=O)CSC1=O)N1CCCCC1
i	0.13	CS(=O)(=O)N1CCN(c2ccc(NC(=O)c3ccccc3)cc2)CC1
i	1.1	Fc1ccc(Br)cc1/C=N/N1CCN(c2ccccc2)CC1
i	3.3	O=Cc1ccc(Oc2ccc(F)cc2)nc1
i	1.4	CC(=O)c1ccc(NC(=O)Cn2c(=O)oc3ccccc32)cc1
i	0.85	CCOc1nc(-c2ccccc2)ccc1-c1noc(-c2cccs2)n1
i	-0.04	COc1cc(-c2nnc(SCC(=O)/C(C#N)=C(\C)N)o2)cc(OC)c1OC
i	2.7	CC(=O)Nc1ccccc1N(CC(O)Cn1c2ccccc2c2ccccc21)S(=O)(=O)c1ccc(C)cc1 (stereo unspecified)
i	-0.41	CCOC(=O)c1sc(NC(=O)CSc2nnc(-c3ccco3)o2)c(C(=O)OCC)c1C
i	-0.84	Cn1cccc1CC(=O)N/N=C/c1cc([N+](=O)[O-])ccc1Cl
i	0.62	Cc1onc(-c2ccccc2)c1NC(=O)Nc1c(-c2ccccc2)noc1C
i	0.19	Cc1c(N/N=C(\C#N)C(=O)c2ccc(Cl)cc2)c(=O)n(-c2ccccc2)n1C
i	1.9	COc1cccc(C2c3[nH]c4ccccc4c3CCN2Cc2cnc(C)s2)c1OC (stereo unspecified)
i	0.29	Cc1ccc2c(c1)OC(c1ccc3c(c1)OCCO3)CC2=O (stereo unspecified)
i	-0.16	COc1ccccc1-c1cc(C(=O)NCc2ccc(F)cc2)no1
i	0.57	C#CCOc1ccc2c3c(c(=O)oc2c1)CCCC3
i	-0.8	CCC(C)[C@@H](NC(=O)OC(C)(C)C)c1nnc(S(=O)(=O)Cc2cccc(C)c2)o1 (stereo partly specified)
i	0.44	CC(C)c1onc(C(=O)N2CCN(c3ccc(F)cc3)CC2)c1[N+](=O)[O-]
i	0.23	Cc1nc2sc(C(c3cccs3)N3CCN(C(=O)c4ccco4)CC3)c(O)n2n1 (stereo unspecified)
i	-1.5	N#C/C(=C/c1ccc(Sc2nc3ccccc3[nH]2)o1)c1ccccc1F
i	-0.12	C/C(N)=C(/C#N)C(=O)COC(=O)c1ccccc1C(=O)c1ccc(C)cc1
i	-1.7	CC(=O)C1=C(O)C(=O)N(CCc2c[nH]c3ccccc23)C1c1ccc(C)cc1 (stereo unspecified)
i	-0.45	CCC(C)c1ccccc1NC(=O)COC(=O)CCc1cc(OC)c(OC)c(OC)c1 (stereo unspecified)
i	-0.06	O=C(Nc1ccc(Oc2ccccc2)nc1)C1CCN(Cc2ccco2)CC1
i	0.37	CCc1nc2nc(C)c(NS(=O)(=O)c3ccc4c(c3)CCCC4)c(=O)n2[nH]1

# Complete entries from above. Values in the order: KCNQ2 inh, KCNQ2 inh baseline
# `CC(C)c1onc(C(=O)N2CCN(c3ccc(F)cc3)CC2)c1[N+](=O)[O-]` is listed with i, 0.44
# `CCC(C)[C@@H](NC(=O)OC(C)(C)C)c1nnc(S(=O)(=O)Cc2cccc(C)c2)o1` (stereo partly specified) is listed with i, -0.8

# Further records
KCNQ2 inh	KCNQ2 inh baseline	Compound
i	2.1	CC[n+]1c(/C=C/N(C)c2ccccc2)oc2ccccc21
i	-0.23	Cc1ccc(CSCCNC(=O)c2ccc(Cl)c(S(=O)(=O)N3CCOCC3)c2)cc1
i	0.82	O=C(C1CCC1)N1CCN(c2ccc(Cl)cc2)CC1
i	0.19	NC(=O)c1c(NC(=O)COC(=O)CSc2nnc(-c3ccc(Cl)cc3)o2)sc2c1CCC2
i	37	CCOC(=O)/C(=C/C=C1\Sc2ccccc2N1CC)C(C)=O

# A portion of the library, so the mix of outcomes need not match the whole.
